HPGD inh: qHTS Assay for Inhibitors of HPGD (15-Hydroxyprostaglandin Dehydrogenase). 15-hydroxyprostaglandin dehydrogenase [NAD(+)] (Homo sapiens), P15428. purified HPGD, NADH fluorescence kinetic, PGE2 substrate. Potency, µM, for the others: top-dose activity change, negative = inhibition, usual class: inhibitors. 150,000 tested, 4.3% active. AID 894, 2007; active = well fitted inhibition curve with a large enough effect (not every such curve was filed as active); inconclusive = small, poorly fitted or top-dose-only effect, or another doubt; inactive = no such curve, though single readings can be large or run the other way;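 note: top concentration of the series not given in the record; plate controls included wells without enzyme; inactives centre near -10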
Target sequence (P15428 whole entry, looked up): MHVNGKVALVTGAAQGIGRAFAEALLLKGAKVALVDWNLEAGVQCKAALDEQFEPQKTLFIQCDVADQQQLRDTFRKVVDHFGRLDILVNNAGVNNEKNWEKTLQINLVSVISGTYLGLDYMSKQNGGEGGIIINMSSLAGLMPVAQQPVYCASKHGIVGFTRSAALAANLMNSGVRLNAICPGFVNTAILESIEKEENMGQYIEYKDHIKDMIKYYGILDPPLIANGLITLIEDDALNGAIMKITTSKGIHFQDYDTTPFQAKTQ
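20 nM HPGD preincubated 15 min at room temperature with compound in 50 mM Tris-HCl pH 8, 0.01% Tween 20. Started with 1 mM NAD+ and 30 uM prostaglandin E2; NADH fluorescence (360/450 nm) read 5 times over 30-s intervals, last minus first.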
The depositor's hits bear a star; ? = inconclusive; & = joins results of further samples. % is set by controls: 0 for no effect and ±100 for the full control effect; potency is the fitted concentration of half-maximal effect. A portion of the library (hit frequency here may not be typical).

nr | mol | HPGD inh
1 | O=C(/C=C/c1ccc(Cl)cc1)N1CCN(c2ccccc2[N+](=O)[O-])CC1 | -15.0%
2 | O=C(Nc1ccon1)c1ccc(S(=O)(=O)N2CCCCCC2)cc1 | -15.8%
3 | Cc1ccc[n+](-c2nc3ccccc3nc2C(=C=[N-])C#N)c1 | -19.3%
4 | N#CC(C(=O)Nc1ccc(Cl)cc1)=C1Nc2ccccc2N1 | -1.3%
5 | COc1cc(NC(=O)CCC2CCCC2)cc(-n2cnnn2)c1 | -27.1%
6 | Cc1ccc(-n2nnc3c(=O)n(CC(=O)OCc4ccccc4)cnc32)cc1 | -18.5%
7 | O=C1c2ccccc2C(=O)N1OCc1ccc(Cl)cc1 | -9.3%
8 | COC(=O)c1ccc(C23CC4(C2)[C@H](CN(Cc2cccnc2)[C@@H]4c2ccccc2)C3c2ccc(Cl)nc2)cc1 (stereo partly specified) | -7.5%
9 | Oc1ccc(-c2nnc(SCC3CCCCC3)o2)cc1 | -17.0%
10 | O=C(O)c1ccc(NS(=O)(=O)c2ccc3c(c2)OCCO3)cc1 | -10.3%
11 | Cc1cc(NC(=O)CSc2nc3ccccc3c(=O)n2C(C)c2ccccc2)no1 (stereo unspecified) | -17.8%
12 | FC(F)Sc1nnc(-c2cccs2)n1-c1ccccc1 | -12.5%

Additional records follow:
nr | mol | HPGD inh
13 | COc1ccc(CN2C(=O)C(O)(CC(=O)c3ccc4c(c3)OCO4)c3ccccc32)cc1OC (stereo unspecified) | -5.8%
14 | Cc1ccc(C)c(-n2c(SCC(=O)NCC3CCCO3)nnc2-c2ccoc2C)c1 (stereo unspecified) | -15.3%
15 | CC(C)(C)c1ccc2c(c1)C(c1ccc3c(c1)OCO3)CC(=O)O2 (stereo unspecified) | -5.5%
16 | CCOc1ccccc1N1CC(C(=O)Nc2nccs2)CC1=O (stereo unspecified) | 3.2%
17 | CCOc1cc(C)c(Cl)cc1S(=O)(=O)NCC1CCCO1 (stereo unspecified) | -0.6%
18 | COc1ccc(N2CCn3c2nc2c3c(=O)n(CCc3ccccc3)c(=O)n2C)c(OC)c1 | -1.6%
19 | C=CCSc1nnc(NC(=O)CSc2nc3ccccc3o2)s1 | -24.1%
20 | COc1ccc(/C=C2/SC(=O)N(CCNC(=O)C3CCCN3C(=O)c3cccs3)C2=O)cc1 (stereo unspecified) | ?
21 | COc1ccc(CC(=O)Nc2nccs2)cc1OC | -19.7%
22 | Cc1cc(NS(=O)(=O)c2ccc(NC(=O)c3cc4ccccc4o3)cc2)no1 | -16.4%
23 | CCOc1ccc(CCNC(=O)C2CCN(c3ccc(N4CCOCC4)nn3)CC2)cc1OCC | ?
24 | Cc1ccc(C)n1-c1ccc(NC(=O)c2ccccc2)cc1 | -10.9%

The listing continues.
nr | mol | HPGD inh
25 | CCCn1c(N)c(C(=O)CSc2nnc(-c3ccco3)n2Cc2ccccc2)c(=O)[nH]c1=O | -14.0%
26 | Cc1nc2sc(C(c3ccco3)N3CCN(C(c4ccccc4)c4ccccc4)CC3)c(O)n2n1 (stereo unspecified) | ?
27 | CN1C[C@H](C(=O)N[C@]2(C)O[C@@]3(O)C4CCCN4C(=O)[C@H](Cc4ccccc4)N3C2=O)C[C@@H]2c3cccc4[nH]cc(c34)C[C@H]21 (stereo partly specified) | -9.4%&-4.2%
28 | Cc1nn(C)c(C)c1NC(=O)CSc1nc(C2CC2)nc2c1cnn2-c1ccccc1 | -24.0%
29 | CCN(CC)CC[n+]1ccc2c(C)c3[nH]c4ccccc4c3c(C)c2c1 | -5.9%
30 | O=C(Nc1ccc2c(c1)OCCO2)c1ccc2nccnc2c1 | -15.4%
31 | COC(=O)C1=C(C)Nc2ccc(C)cc2S1 | -15.0%
32 | Nn1cc(-c2ccccc2)nc1SCC(=O)N1CCN(S(=O)(=O)c2ccccc2)CC1 | 1.4%
33 | C[N+](C)(CCCOc1ccccc1)c1ccccc1 | 0.2%
34 | Cc1c(NC(=O)c2cccc(-c3cc4ccccc4oc3=O)c2)cccc1-c1nc2ncccc2o1 | ?
35 | Cc1ccc2nc(CSc3nnc(Nc4ccccc4C)s3)cc(=O)n2c1 | ?
36 | COc1ccc(-c2nc(-c3cccc(C)c3)[nH]c(=O)c2C#N)cc1 | ?

(continued)
nr | mol | HPGD inh
37 | Cn1c(Cc2ccccc2)nnc1SCC(=O)N1CCOCC1 | -5.1%
38 | O=[N+]([O-])c1cccc(Cl)c1NCCNS(=O)(=O)c1ccc(Cl)cc1 | -4.5%
39 | Cn1c(=O)[nH]c(=O)c2c1nc(CN1CCN(c3cccc(Cl)c3)CC1)n2CCCc1ccccc1 | -6.1%
40 | CCOC(=O)CSc1cc(CS(=O)c2ccc(Cl)cc2)nc(-c2ccccc2)n1 (stereo unspecified) | ?
41 | CCn1c(SCc2c(F)cccc2Cl)nnc1-c1ccco1 | 1.9%
42 | CC(C)(C)c1ccc(OC(=O)c2ccc3nsnc3c2)cc1 | -28.5%
43 | COc1ccc(-c2c(S(=O)(=O)c3ccccc3)cnn2-c2ccccc2)cc1 | -8.0%
44 | Cc1ccc(SCC2CNc3nc4ccccc4c(=O)n32)c(C)c1 (stereo unspecified) | -5.2%
45 | CCN(CC(=O)NCc1cccs1)S(=O)(=O)c1cccc(C(C)=O)c1 | -9.9%
46 | COc1cc(C2C(C(C)=O)=C(O)C(=O)N2CCN(C)C)ccc1O (stereo unspecified) | -6.0%
47 | O=C1C2(c3ccccc3)CN(CCCO)CC1(c1ccccc1)CN(CCCO)C2 | 4.1%
48 | CCCCN1C(=O)/C(=c2\sc3nc(=O)c(-c4ccccc4)nn3c2=O)c2ccccc21 | 25.1µM*

Continuation.
nr | mol | HPGD inh
49 | Cn1c(SCc2nc3ccccc3[nH]2)nnc1-c1ccccn1 | 0.8%
50 | COC(=O)c1cccc(C23CC4(C2)[C@H](CN(Cc2ccc(C(F)(F)F)cc2)[C@@H]4c2ccccc2)C3c2ccccc2)c1 (stereo partly specified) | -10.3%
51 | CCNC(=O)OCCC12CC3CC(CC(C3)C1)C2 | 2.5%
52 | CN(Cc1ccccc1)Cc1nc2c(c(=O)n(C)c(=O)n2C)n1CCCc1ccccc1 | -5.0%
53 | Cc1ccnc(SCC(=O)c2cccc([N+](=O)[O-])c2)n1 | -19.5%
54 | C=CCN1C(=O)C(Cc2ccc(F)cc2)S/C1=N/N=C/c1cccs1 (stereo unspecified) | -12.2%
55 | Cc1ccccc1OCCn1c(=O)oc2ccccc21 | -1.0%
56 | O=C(CN(CC1CCCO1)C(=O)CCC(=O)Nc1nccs1)NCc1ccc2c(c1)OCO2 (stereo unspecified) | -5.3%
57 | CN1Cc2sc(N)c(C#N)c2CC1(C)C | ?
58 | CCCCNC(=O)CS(=O)Cc1nc(-c2cccs2)oc1C (stereo unspecified) | -12.5%
59 | COc1ccc(OCC(=O)NNC(=O)c2cccnc2)cc1 | -15.3%
60 | Cc1cc2ccccc2n1CCNC(=O)COc1ccc2ccccc2c1 | -17.1%

(next part)
No. | Compound | HPGD inh
61 | CCOc1ccc(NC(=S)N(CCc2c(C)[nH]c3ccccc23)Cc2cccnc2)cc1 | -18.0%
62 | COCC(=O)N1CCC2(CC1)CN(C(c1ccccc1)c1ccccc1)C2 | -2.9%
63 | CC(=O)NC(CC(=O)O)C(=O)O (stereo unspecified) | -3.8%
64 | COc1ccc(C2=C(C=C(C#N)C#N)C(c3ccccc3C)c3ccccc3O2)cc1OC (stereo unspecified) | -12.5%
65 | COc1ccccc1CN1CCCC2(CCN(C(=O)c3c(C)noc3C)CC2)C1 | -3.6%
66 | CCC(C)C(NC(=O)OCc1ccccc1)C(=O)OCN1C(=O)c2ccccc2C1=O (stereo unspecified) | -12.1%
67 | CCOC(=O)C1C(=O)CC(O)(c2ccccc2)CC1c1ccccc1 (stereo unspecified) | -10.2%
68 | Cn1ncc(Cl)c1C(=O)Nc1nc2ccc(Cl)cc2s1 | ?
69 | CCN(CC)C(=O)C1CCCN(C(=S)Nc2cccc3ccccc23)C1 (stereo unspecified) | -9.0%
70 | Cc1nc2ccccc2c(=O)n1/N=C/c1ccccn1 | -8.1%

The results go on:
No. | Compound | HPGD inh
71 | CCOC(=O)c1nnn(-c2nonc2N)c1CSc1ccc(C)cc1 | -23.1%
72 | COC/C=C/C1=CC2=CC(=O)C(C)(OC(=O)c3cnc4ccccc4n3)C(=O)C2=CN1CCc1ccccn1 (stereo unspecified) | 6.8%
73 | c1cncc(CNc2c3c(nc4nnnn24)CCCC3)c1 | -11.7%
74 | COc1ccc(C(=O)CSc2nc(N)nc(SC)c2C#N)cc1 | -11.6%
75 | Cc1noc(NS(=O)(=O)c2cccc3c(N(C)C)cccc23)c1C | ?
76 | O=C(NCCc1c[nH]c2ccccc12)c1c(Cl)nc2sccn12 | -8.3%
77 | COc1ccc(N2C(C)=CS/C2=C(/C#N)c2nnc(N3CCOCC3)n2-c2ccccc2)cc1 | -6.4%
78 | COc1cccc(NC(=S)NCc2ccccn2)c1 | -28.2%
79 | COc1ccc(S(=O)(=O)NC2CCCCC2)c(C)c1C | -3.3%
80 | Cn1c(=O)c2c(nc(Br)n2Cc2ccccc2Cl)n(C)c1=O | -7.5%

The list continues:
No. | Compound | HPGD inh
81 | CN(C)CCCOC(=O)c1ccc(Cl)cc1Cl | -5.1%
82 | O=C(Nc1nc2c(s1)CCc1ccccc1-2)c1cccs1 | -13.4%
83 | O=C(c1ccco1)N1C(=O)c2cccc3c(S(=O)(=O)N4CCCC4)ccc1c23 | -23.5%
84 | O=C(Nc1ccc(S(=O)(=O)N2CCCCC2)cc1)c1ccc(CN2CCOCC2)cc1 | -13.7%
85 | O=C(CSCCc1ccccn1)Nc1ccccn1 | -12.1%
86 | O=C(NCc1cccc(Cl)c1)c1cnn2c1NC(c1ccco1)CC2C(F)(F)F (stereo unspecified) | -26.6%
87 | CC1=C(C)CC2C(=O)N(c3cccc4ccccc34)C(=O)C2C1 (stereo unspecified) | 25.1µM*
88 | Cc1cc(C)c2c(C)nn(C3CCCCC3)c2n1 | -12.3%
89 | Cc1cccc(NCC(=O)N/N=C\c2cccc(Oc3ccccc3)c2)c1 | -18.7%
90 | Cc1ccc(CN2CCNC(=O)C2CC(=O)O)o1 (stereo unspecified) | -4.0%

Further compounds follow.
No. | Compound | HPGD inh
91 | Cc1ccc(Nc2nc(Oc3ccc(=O)[nH]n3)nc(N(C)C)n2)cc1 | -8.4%
92 | Nc1ccc(N)c(Cl)c1 | ?
93 | Cc1nn(-c2ccccc2)c(C)c1/C=N/n1c(-c2ccc(C(C)(C)C)cc2)n[nH]c1=S | ?
94 | Cc1cc(C)cc(N(CC(=O)NCc2ccc3c(c2)OCO3)C(=O)CCC(=O)Nc2ccccn2)c1 | -4.2%
95 | Cc1cc(C)c(S(=O)(=O)N2CCCOC2CNC(=O)C(=O)NCCCn2ccnc2)c(C)c1 (stereo unspecified) | -0.3%
96 | Cc1c(C2=CCN(S(=O)(=O)c3ccc(Br)cc3)CC2)c2ccccc2n1C | -24.5%
97 | C/C(=N\NC(=O)C(=O)Nc1cc(Cl)ccc1Cl)c1ccncc1 | -14.3%
98 | Cc1ccc(SC(C)C(=O)NCc2cccnc2)cc1 (stereo unspecified) | -0.4%
99 | Nc1nc(SCC(=O)Nc2cccc(Oc3ccccc3)c2)n[nH]1 | -15.8%
100 | CCCCN=C(C)C1=C(O)CSC1=O | -2.3%

Additional structures.
No. | Compound | HPGD inh
101 | O=C(O)C1C2CCCCC2=C2CCCCC2C1C(=O)O (stereo unspecified) | -8.2%
102 | C/C(=N\Nc1nc2ccccc2[nH]1)c1ccc(Cl)s1 | -20.8%
103 | Cc1cccc(NC(=O)NCc2ccccn2)c1 | -7.8%
104 | COc1ccc(C(=O)N2CCN(C(=O)c3ccncc3)CC2)cc1 | -6.8%
105 | C=CCn1c(-c2cccc3ccccc23)n[nH]c1=S | -20.0%
106 | O=C(COC(=O)CNC(=O)c1ccc(Cl)cc1)Nc1ccc2c(c1)OCCO2 | ?
107 | COc1ccc(CCNC(=O)Cn2nnc(-c3cccc(OC)c3OC)n2)cc1OC | -10.1%
108 | O=S(=O)(/C=C/c1ccccc1)NCc1ccccc1Cl | -10.4%
109 | CCNc1nc(Oc2ccc(C(=O)OCC)cc2)nc(SC)n1 | -4.3%
110 | O=C(Nc1cccc2ccccc12)N1CCOCC1 | -9.0%

The results go on:
No. | Compound | HPGD inh
111 | CC1=C(C(=O)Nc2cc(C)ccn2)C(c2ccc(C)cc2)C2=C(CCCC2=O)N1 (stereo unspecified) | ?
112 | CCN1CCCC1CNCc1cccc(OC)c1OCc1ccccc1F (stereo unspecified) | -1.0%
113 | CCCNc1nc2c(c(=O)n(C)c(=O)n2C)n1CCC(C)C | -5.2%
114 | COC(=O)NNC(=O)c1ccc(Cl)cc1Cl | -16.5%
115 | COc1ccc(CC(=O)Nc2cccc(C)n2)cc1OC | -1.0%
116 | COc1cc(Cl)c(C)cc1NC(=O)COc1ccccc1[N+](=O)[O-] | -4.7%
117 | Fc1ccc(/C=N/c2c(-c3ccc(F)cc3)nc3n2CCS3)cc1 | 4.8%
118 | Cc1ccccc1NC(=S)NNC(=O)c1csc2c1CCC(C)C2 (stereo unspecified) | -8.2%
119 | CCc1ccc(N2C(=O)C3NN=C(C(=O)OCc4ccccc4)C3C2=O)cc1 (stereo unspecified) | -11.8%
120 | COc1ccc(S(=O)(=O)N2CCN(CC(=O)Nc3ccc(F)c(F)c3)CC2)cc1 | -6.7%

Later entries
No. | Compound | HPGD inh
121 | COc1ccc(CNc2cc(-c3ccccc3CN(C)C)ncn2)c(OC)c1 | -4.3%
122 | C1CN(c2nc3nonc3n3nnnc23)CCO1 | -5.9%
123 | CCCCCSc1nc(C)c(CC(=O)O)c(=O)[nH]1 | 4.1%
124 | Cc1ccc(C(=O)NCCCn2ccnc2)cn1 | -12.8%
125 | Cc1ccc(C)c(NS(=O)(=O)c2cc(C(=O)NCc3ccco3)ccc2C)c1 | -6.7%
126 | CCN1C(=O)/C(=C\N2CCN(c3ccccc3)CC2)SC1=S | -18.6%
